Compound activity from PubChem.
TAR Tat displ: TAR RNA-Tat peptide displacers, HIV-1, primary screen, biochemical, FRET, FAM/TAMRA-labeled Tat | HIV-1 TAR RNA, Tat peptide displacement FRET; active compounds read high | z-score (no concentration beside the values) | hit rate 0.6% among 100,000;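 note: score is relative to mean and SD of negative controls; some compounds called inactive have numbers as strong as hits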
CDC25B CDK2 inh: primary biochemical HTRF screen for blockers of M-phase inducer phosphatase 2 binding to CDK2/cyclin A. P30305+P24941. HTRF CDC25B-CDK2/CyclinA binding, anti-His/anti-Flag; active compounds read high. hit rate 0.72% among 94,000. AID 1259370, 2018. z-score (test concentration not listed);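 note: score is relative to mean and SD of negative controls; strong numbers were not always called active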
Active calls of the source: *; . = not tested or not shown.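 Rule for the calls: active = z-score from 3 up in half or more of its runs; inactive = the rest.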 Rows were taken by chance; about 0.97% have a hit in one of these screens.

Preview (five entries):
SMILES | TAR Tat displ | CDC25B CDK2 inh
Cc1c(NC(=O)Nc2cccc(F)c2)c(=O)n(-c2ccccc2)n1C | 0.64 | -1.4
Cc1cc2c(cc3c(SCc4cccc(Cl)c4)nnc(C)n32)o1 | -0.74 | .
Cc1cc(NCc2cccs2)n2nc(-c3ccco3)nc2n1 | 0.72 | .
CCn1c(CCc2ccc(NS(=O)(=O)c3c(C)nn(C)c3C)cc2)nc2ccccc21 | 1.9 | .
C=CCNC(=O)CCCc1nc(-c2cccs2)no1 | -0.06 | 0.41

The whole of this part, previewed entries included:
SMILES | TAR Tat displ | CDC25B CDK2 inh
Cc1c(NC(=O)Nc2cccc(F)c2)c(=O)n(-c2ccccc2)n1C | 0.64 | -1.4
Cc1cc2c(cc3c(SCc4cccc(Cl)c4)nnc(C)n32)o1 | -0.74 | .
Cc1cc(NCc2cccs2)n2nc(-c3ccco3)nc2n1 | 0.72 | .
CCn1c(CCc2ccc(NS(=O)(=O)c3c(C)nn(C)c3C)cc2)nc2ccccc21 | 1.9 | .
C=CCNC(=O)CCCc1nc(-c2cccs2)no1 | -0.06 | 0.41
CC1=Nc2ccccc2N=C(NC(=O)CSc2nnc(C)s2)C1c1ccccc1 (stereo not drawn) | . | -1.5
CC(O)c1nc2ccc(-c3ccc4nc(C(C)O)[nH]c4c3)cc2[nH]1 (stereo not drawn) | -0.52 | 6.8*
O=S(=O)(Cc1ccccc1)Nc1ccncc1 | 0.45 | -2.6
CC(=O)OC1CCC2(C)C(=CC=C3C2CCC2(C)C3CCC2C(C)/C=C/C(C)C(C)C)C1(C)C (stereo not drawn) | 3.5 | .
C=CCSc1nnc2c3ccccc3n(CC=C)c2n1 | 0.65 | -1.2
Cc1nc(Cl)c2onc(-c3ccccc3)c2n1 | 4.2 | -1.6
O=C1CC(c2ccc3c(c2)OCO3)CC2=C1C(c1cccnc1)Nc1ccccc1N2 (stereo not drawn) | . | -2.2
O=c1c2cccnc2n(Cc2ccccc2F)c(=O)n1CCc1ccccc1 | 0.67 | -0.61
CC(=O)Nc1c2n(c3ccc(F)cc13)CC(C)(C(=O)NC1CCCCC1)N(CCN1CCCC1)C2=O (stereo not drawn) | -0.08 | .
CC(C)OCCCNC(=O)CCS(=O)(=O)c1cc2c(cc1Cl)NC(=O)CO2 | 3.2 | .
COC(=O)c1sc(NC(=O)c2ccc(Cn3cc(Cl)cn3)o2)c(C#N)c1C | -1.7 | 0.23
COc1ccc(OC)c(NC(=O)c2nc(-n3cnnc3)ccc2Br)c1 | 2 | .
O=C(COc1ccccc1)Nc1ccc2c(c1)OCC1CCCN21 (stereo not drawn) | . | -1.8
O=C1CC2(CCCCC2)Oc2ccc(OCC(=O)N3CCOCC3)cc21 | . | 0.41
CC(C)/C=C1/CCCCC1OC1CCCCO1 (stereo not drawn) | . | -0.13
O=C(O)CSc1nc(SCc2ccccc2)nc2ccccc12 | . | 0.49
CC[n+]1c(C)n(-c2ccccc2)c2ccc(NC(C)=O)cc21 | 1.9 | -2.2
CN(C)c1ccc(CN2CCOC(=O)C2=O)cc1 | -0.43 | -2.6
O=C(NCCN1CCCCC1)c1sc2ncccc2c1-n1cccc1 | 0.2 | .
COc1ccccc1N1CCN(C2=NS(=O)(=O)c3ccccc32)CC1 | . | 0.47

An excerpt of these results, as comma-separated lines:
compound,TAR Tat displ,CDC25B CDK2 inh
O=C1CC(c2ccc3c(c2)OCO3)CC2=C1C(c1cccnc1)Nc1ccccc1N2 (stereo not drawn),.,-2.2
O=c1c2cccnc2n(Cc2ccccc2F)c(=O)n1CCc1ccccc1,0.67,-0.61
CC(=O)Nc1c2n(c3ccc(F)cc13)CC(C)(C(=O)NC1CCCCC1)N(CCN1CCCC1)C2=O (stereo not drawn),-0.08,.
CC(C)OCCCNC(=O)CCS(=O)(=O)c1cc2c(cc1Cl)NC(=O)CO2,3.2,.

(continued)
SMILES | TAR Tat displ | CDC25B CDK2 inh
c1ccc(-c2cn3nc(-c4ccccc4)sc3n2)cc1 | 0.83 | -0.79
CN(Cc1ccco1)S(=O)(=O)c1ccc(CN2C(=O)c3cccnc3C2=O)s1 | 1.4 | .
Cn1c(=O)c(-c2ccccc2)c(OS(=O)(=O)c2ccc(Br)cc2)c2ccccc21 | . | -0.28
COc1ccc(-c2noc(-c3ccccc3C)n2)cc1OC | . | -1.5
Clc1ccc(Cc2nn3c(Cn4cnc5ccccc54)nnc3s2)cc1 | 3.3 | -0.18
O=C(Nc1c(C(=O)c2ccc(F)cc2)oc2ccccc12)c1cc(=O)c2ccccc2o1 | -0.51 | -0.23
Cc1nc(S(=O)(=O)Nc2ccc(C(C)C)cc2)cn1C | 1.6 | .
CSc1nc(C)cc(Nc2ccc(C)cc2C)n1 | 1.4 | -1.1
COc1ccc(N2C(=O)C3C(c4ccc(F)cc4)OC4(C(=O)c5ccccc5C4=O)C3C2=O)cc1 (stereo not drawn) | . | -0.69
CSc1cccc(NC(=O)CCS(=O)(=O)c2ccc3c(c2)n(C)c(=O)c(=O)n3C)c1 | 0.71 | 0.05
CC1CC(C)CN(C(=O)Cn2c3ccccc3c3cn[nH]c(=O)c32)C1 (stereo not drawn) | . | 0.48
Nc1ccc(-c2nnc(-c3ccco3)o2)cc1 | 0.24 | 0.05
CN(C1CCCCC1)S(=O)(=O)c1cc2c3c(c1)CC(=O)N3CCC2 | 1.9 | .
CSc1nc2ccccc2c(=O)n1C1CCOC(C)(C)C1 (stereo not drawn) | 0.83 | 0.59
CCc1ccc(C2NC(=O)c3n[nH]c(-c4ccco4)c32)cc1 (stereo not drawn) | -3.1 | -0.32
CCC(C)n1[nH]c(=O)c2c(C)cc(C)nc21 (stereo not drawn) | 1.2 | -2.8
CC(C)(C)C1=NN(c2nc3ccc(Cl)cc3s2)C(=O)C1 | . | -1.9
C=C(C)Cn1c(SC)nc2sc3c(c2c1=O)CC(C)(C)OC3 | . | -1
O=C(NCc1ccco1)c1c2c(nc3ccccc13)C(=O)N(C1CCCCC1)C2 | -0.56 | .
CC1Nc2c(c(=O)oc3ccccc23)NC1=O (stereo not drawn) | . | -1.5
CCOC(=O)c1sc2nc3n(c(=O)c2c1C)N=C(c1cc2ccccc2oc1=O)CS3 | . | -1.9
COc1ccc(Cl)cc1NC(=O)CSc1nnc(Cc2c(C)nc3ccc(C)cn3c2=O)n1C | 0.1 | -1.6
O=C(Cn1ncc2ccsc2c1=O)NCCC1=CCCCC1 | -1.3 | -0.6
Fc1cccc(Cl)c1CSc1nnc(-c2cn3cc(C(F)(F)F)cc(Cl)c3n2)o1 | . | -0.21
CC1CCCN(C(=O)CC(C)S(=O)(=O)c2ccc3c(c2)NC(=O)CO3)C1 (stereo not drawn) | 1 | .

(cont.)
SMILES | TAR Tat displ | CDC25B CDK2 inh
C=CCOc1ccc(/C(O)=C2/C(=O)C(=O)N(CCOC)C23C(=O)N(C)c2ccccc23)cc1 (stereo not drawn) | 0.82 | 1.6
O=C(NC1CCCCC1)[C@@H](c1ccccc1)N1Cc2ccccc2C1=O | 0.14 | -0.67
Cc1ccc2onc(CNC(=O)NCCN(C)Cc3ccccc3)c2c1 | 2.5 | .
CCOc1ccc(N2C(=O)CC(N(Cc3ccco3)C(=O)CCC(=O)O)C2=O)cc1 (stereo not drawn) | . | 0.39
CCOC(=O)c1nc(Nc2ccc(N3CCC(C)CC3)cc2)c2c(C)noc2n1 | 0.75 | .
COc1ccc(S(=O)(=O)c2cnc3ccc(Cl)cc3c2N2CCCCC2)cc1 | 0.91 | 1.4
Nc1nc(N)nc(-c2ccccc2)n1 | . | -0.45
Cc1ccccc1-c1noc(-c2nnn(-c3cc(Cl)ccc3C)c2N)n1 | -0.93 | .
O=S1(=O)C[C@H](N2CCN(c3ccccc3F)CC2)[C@@H](S(=O)(=O)c2ccc(F)cc2)C1 | -0.39 | -1.9
Cc1ccccc1OCCCCn1c(C(C)O)nc2ccccc21 (stereo not drawn) | 1.5 | -2.1
CC1CCCN(C(=O)C2CCN(c3nc4cccnc4s3)CC2)C1 (stereo not drawn) | -1.7 | -1
O=C(NC1CCCC1)C1=Cc2ccccc2OC1 | 0.1 | .
Cc1ccc(S(=O)(=O)[C@H]2CS(=O)(=O)C[C@@H]2NCC(C)C)cc1 | -0.59 | -1.4
Cc1cc2n(n1)C(c1ccc(N3CCCC3)cc1)Nc1ccccc1-2 (stereo not drawn) | 2.2 | -1.1
CC(CC(=O)N1CC=C(c2ccccc2)CC1)CC1=NS(=O)(=O)c2ccccc2N1 (stereo not drawn) | 0.46 | .
CCOC(=O)c1sc(=S)n(-c2ccccc2Br)c1N | 1.5 | .
CCC(C)Nc1sc(S(=O)(=O)CC)nc1S(=O)(=O)c1ccc(C)cc1 (stereo not drawn) | 2.3 | -0.4
CCCCN(C)C(=O)C1CCC(Cn2c(=O)c3sccc3n(CC(=O)N3CCCC3)c2=O)CC1 (stereo not drawn) | 1.9 | .
CCCC(O)c1nc2ccccc2n1CCCOc1ccc(OC)cc1 (stereo not drawn) | 3.7 | -0.03
CCCOc1ccc(C(=O)Nc2ccc(O)c(-c3nc4cc(C)c(C)cc4o3)c2)cc1 | . | -3.7
Cc1cc2nc(CSc3nc4ccc(NC(=O)CCC5CCCC5)cc4s3)cc(=O)n2o1 | 0.82 | .
O=C(Nc1ccc(Br)cc1F)N1CCN(Cc2ccc3nccnc3c2)CC1 | -1.6 | .
COC(=O)N1CCc2cc(OC)c(OC)cc2C1c1ccc(OC)c(OC)c1 (stereo not drawn) | 3.4 | -2
COC(=O)c1ccc(C2C(C#N)=C(N)Oc3nc[nH]c(=O)c32)cc1 (stereo not drawn) | . | -1.4
COc1ccc(-c2cc(N)n(S(=O)(=O)Cc3ccccc3)n2)c(OC)c1 | . | -0.51

Full records, quoted from the list. Screens in order: TAR Tat displ | CDC25B CDK2 inh
Results for CC1Nc2c(c(=O)oc3ccccc23)NC1=O (stereo not drawn) : . | -1.5
Results for Fc1cccc(Cl)c1CSc1nnc(-c2cn3cc(C(F)(F)F)cc(Cl)c3n2)o1 : . | -0.21

Going on with the list:
SMILES | TAR Tat displ | CDC25B CDK2 inh
COc1ccc(OC)c(S(=O)(=O)N2CCCCC2C(=O)O)c1 (stereo not drawn) | . | -0.46
O=C(C1CCN(S(=O)(=O)c2ccc3[nH]c4c(c3c2)CCCCC4)CC1)N1CCc2ccccc2C1 | 0.61 | .
CCc1nn(CCCC(=O)NCC2CCCO2)c(=O)c2cc3oc(C)cc3n12 (stereo not drawn) | 1.1 | 0.77
CC1CC(C)CN(C(=O)c2cc(S(=O)(=O)N3CCc4ccccc43)cn2C)C1 (stereo not drawn) | 1.2 | 0.43
COc1cc(OC)c(Nc2c(-c3cc(C)c(C)cc3C)c(=O)c2=O)cc1Cl | 0.51 | .
Cc1cc(C)c2nc(N3CCC(C(=O)N4CCC(C)CC4)CC3)sc2c1 | 0.41 | -1.4
Cn1ccc2cc(S(=O)(=O)N3CCC(C(=O)O)CC3)ccc21 | 0.57 | -0.87
CC[C@H]1OC(=O)[C@H](C)C(O[C@H]2C[C@@](C)(OC)[C@@H](O)[C@H](C)O2)[C@H](C)[C@@H](OC2O[C@H](C)C[C@H](N(C)C)[C@H]2O)[C@](C)(O)C[C@@H](C)CN(C)[C@H](C)[C@@H](O)[C@]1(C)O (stereo partly drawn) | . | -0.43
O=C(Cn1c(=O)oc2cc(S(=O)(=O)N3CCCCCC3)ccc21)Nc1nccs1 | . | -2.1
CC(C)n1c(CO)nc2ccccc21 | 2.4 | -2.5
COc1cccc(OCc2nc3ccccc3[nH]2)c1 | 0.27 | -0.24
Nc1ccccc1SCc1cc(=O)n2nc(C3CCCCC3)sc2n1 | 2.4 | .
Cc1ccc2nc(Nc3ccccc3)c3nncn3c2c1 | 1.8 | -1.7
O=C(c1cnn2c(C(F)F)cc(-c3ccccc3)nc12)N1CCCC1c1ccc(F)cc1 (stereo not drawn) | 0.38 | 2.3
N#C/C(=C\c1ccc(O)c(O)c1)C(=O)OC/C=C/c1ccccc1 | 12 | .
CCN(CC)C(=S)Oc1ccc(C#N)cc1 | . | 0.06
CC(C)S(=O)(=O)c1cscc1N1C(=O)c2ccccc2C1=O | . | -1.5
Cc1ccc(-c2cnc(C3CC3)o2)cc1S(=O)(=O)Nc1ccccc1F | 1.1 | .
CCOC(=O)N1CCC(c2[nH][nH]c(=O)c2C)CC1 | -0.9 | -0.54
COc1ccc(Cc2nc(-c3cc(Cl)ccc3OC)no2)cc1OC | 2.2 | 0.21
COc1ccc(S(=O)(=O)c2c(SC)nn(Cc3ccc(C)cc3)c2N)cc1 | -1.3 | .
COC(=O)c1cc(NC(=O)c2oc3c(c2C)-c2[nH]ncc2CC3)cc(C(=O)OC)c1 | -2.6 | -1.4
O=C1NC(c2ccc(-c3ccccc3Cl)o2)C(C(=O)c2ccccc2)C(O)(C(F)(F)F)N1 (stereo not drawn) | . | -1.5
COc1cccc(-c2noc(-c3ccc(OC)c(OC)c3)n2)c1 | 1.6 | -2.1
CC(=O)CSc1ccc(OCC(F)(F)F)c(C#N)c1OCC(F)(F)F | . | -1.3

Next records.
SMILES | TAR Tat displ | CDC25B CDK2 inh
Cc1nn(CC(=O)NC2CCCc3ccccc32)c(=O)c2cccn12 (stereo not drawn) | 1.4 | -0.35
CSc1cccc(N2CC(c3nc4ccccc4n3CC(=O)N(c3ccccc3)C(C)C)CC2=O)c1 (stereo not drawn) | 0.51 | -2.2
CCOc1ccc(-c2cc(C(=O)O)c3cc(Br)ccc3n2)cc1 | 1.9 | -2.4
Cc1ccc(C)c(CSc2nnc(C)n3c2cc2oc(C)cc23)c1 | -0.89 | .
CCOCCCNc1cc(N2CCN(CCO)CC2)c2noc3c2c1C(=O)c1ccccc1-3 | 0.8 | -2.9
CC(C)N(C)C1CCN(C(=O)Nc2ccc(Cl)cc2)CC1 | 0.27 | .
